Screening data: PubChem, several laboratories
MT1-MMP reporter: MT1-MMP gene expression reporter suppression – cell-based, luciferase reporter, luminescence (AID 618). MT1-MMP promoter luciferase reporter cells, luminescence. calls from a first round at 10 µM; hits with a dose series show EC50 in µM. hit rate 0.62% among 87,000;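 active = over half of the reporter light lost at 10 µM or EC50 under 50 µM; inactive = the rest and hits that failed the dose series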;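 also: actives suppress MT1-MMP promoter-driven transcription so potencies describe inhibitors; HT1080 fibrosarcoma cells; overnight exposure; toxic or luciferase-blocking compounds were not removed from the actives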
Hsc70 ATP site: small molecules displacing fluorescent ligand from Hsc70 – biochemical, fluorescence polarization, primary screen (AID 568); Hsc70 fluorescence polarization, probe displacement; higher % means a stronger effect; strong numbers were not always called active; displacement, % at 20 µM; hits with a dose series show IC50 in µM; 83,000 tested, under 10 active;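 active = displacement above 50% without optical interference and an IC50 on retest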;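 also: ATPase domain with a fluorescein-tagged ATP probe; 0% = vehicle and 100% = excess ADP; read after one hour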
WNV protease inh: WNV NS2B-NS3 proteinase inhibition; P06935; WNV NS2B-NS3 protease, fluorogenic substrate Ex360/Em465; hits give low values; z-score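 (tested at a level between 10 and 100 µM)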; hit rate 0.18% among 65,000; AID 577;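 active = z-score at -3 or under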;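 also: score is relative to mean and spread of the compound wells of a plate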
Target sequence (P06935 1371-1501 limits assumed): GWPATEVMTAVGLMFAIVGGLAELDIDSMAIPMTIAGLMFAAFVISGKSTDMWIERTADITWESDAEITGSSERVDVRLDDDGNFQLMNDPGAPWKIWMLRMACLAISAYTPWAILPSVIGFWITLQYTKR
Target sequence (P06935 1502-1679 limits assumed): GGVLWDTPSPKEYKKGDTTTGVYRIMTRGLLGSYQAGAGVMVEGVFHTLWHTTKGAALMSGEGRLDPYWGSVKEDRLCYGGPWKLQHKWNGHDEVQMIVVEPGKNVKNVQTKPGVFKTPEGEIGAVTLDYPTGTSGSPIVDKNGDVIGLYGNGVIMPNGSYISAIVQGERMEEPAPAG
Starred values were filed as active, the others as inactive; i = inactive; · = no result given.

Sequence of screens: MT1-MMP reporter	Hsc70 ATP site	WNV protease inh
Cc1ccc(Cl)cc1N1CCN(C(=O)C2CCN(S(=O)(=O)c3c(C)nn(C)c3C)CC2)CC1
→ i	2.4%	0.19
Nc1ccccc1-c1nc2ccccc2[nH]1
→ i	8.8%	2
CCOC(=O)/C=C(\C)Sc1cc(=O)oc2ccccc12
→ i	2.9%	0.27
O=C(NCc1ccccc1)C(c1ccc(O)cc1)N(C(=O)Cn1nnc(-c2cccs2)n1)c1ccc2c(c1)OCCO2 (stereo unspecified)
→ i	-1.6%	·
Nc1nsnc1C(=O)NCCO
→ i	1.4%	-0.26
COc1ccc(C(=O)Cn2c(Br)nc3c2c(=O)n(C)c(=O)n3C)cc1OC
→ i	-3.9%	0.34
O=C(O)C1C2C=CC(C2)C1C(=O)Nc1cccc(F)c1 (stereo unspecified)
→ i	-5.3%	0.98
Cc1cc(C)nc(SCCC(=O)N(C)C)n1
→ i	0.9%	0.98
O=C(CNC(=O)c1ccco1)NCC(=O)OC(C(=O)c1ccccc1)c1ccc(Cl)cc1 (stereo unspecified)
→ i	0.1%	·
COc1cc2c(C(=O)N3CCN(C4CCCCC4)CC3)cn(CC(C)C)c(=O)c2cc1OC
→ i	-5.0%	1.18
CCOc1ccc(CNc2ccc3c(c2)ncn3C)cc1
→ i	-2.9%	0.31
CCOc1ccc(C(=O)N2CCSC2=S)cc1
→ i	7.0%	·
C=C(C)C(=O)OC1(C(F)(F)F)Oc2cc(C)ccc2NC1=O (stereo unspecified)
→ i	-2.8%	·
COc1ccc(S(=O)(=O)N2CCN(C(=O)NCc3ccccc3)CC2)cc1
→ i	-7.0%	1.28
Cc1cc(N/C=C/C(=O)c2cccc3ccccc23)no1
→ i	0.1%	0.02
COc1ccc(NC(=O)OC(C)C)cc1
→ i	0.3%	·
C=C(C)C1Cc2nc(N)nc(C)c2C1 (stereo unspecified)
→ i	3.8%	-0.7
Cc1occc1-c1nnc(SCc2nc3ccccc3c(=O)n2CC#N)n1C
→ i	1.3%	-0.81
Nn1c(SCC(=O)Nc2ccc(F)cc2)nnc1-c1ccccn1
→ i	-5.3%	-0.28
Cc1cc(C)n(-c2ncnc3c2oc2ccccc23)n1
→ i	2.1%	-0.00276

Looked up by compound from the list above, 2 records:
Sequence of screens: MT1-MMP reporter	Hsc70 ATP site	WNV protease inh
O=C(NCc1ccccc1)C(c1ccc(O)cc1)N(C(=O)Cn1nnc(-c2cccs2)n1)c1ccc2c(c1)OCCO2 (stereo unspecified)
→ i	-1.6%	·
Cc1cc(N/C=C/C(=O)c2cccc3ccccc23)no1
→ i	0.1%	0.02

Continuation.
Sequence of screens: MT1-MMP reporter	Hsc70 ATP site	WNV protease inh
CC(C)(C)NCC(=O)c1c[nH]c2ccccc12
→ i	-1.6%	-0.45
COc1ccc(OC)c(C(=O)COC(=O)c2cc(C)oc2C)c1
→ i	-3.6%	-0.19
COCCNC(=O)c1cc(Br)ccc1Cl
→ i	4.9%	1.78
Nc1cc(=O)[nH]c(SCC(=O)Nc2ccc(S(=O)(=O)N3CCOCC3)cc2)n1
→ i	1.6%	·
Cc1ccc2c(COC(=O)c3n[nH]c4ccccc34)cc(=O)oc2c1
→ i	-4.8%	0.42
CC(C)Cn1c(-c2cccs2)nc2nc3ccccc3nc21
→ i	-3.9%	1.14
O=C1C=C(NCc2ccc(Cl)c(Cl)c2)C2(CCCCC2)O1
→ i	4.6%	·
O=C(CSc1ncc(-c2ccc(F)cc2)[nH]1)N1CCCCC1
→ i	0.9%	-0.63
Cc1cccc(OCC(=O)N2CCC(N3CCCCCC3)CC2)c1
→ i	-0.4%	0.79
COc1ccc2c(c1)c1ncnc(N3CCN(Cc4ccc5c(c4)OCO5)CC3)c1n2C
→ i	-3.3%	-0.55
CCOC(=O)c1[nH]c(C)c(C(=O)c2ccc(C)cc2)c1C
→ i	-3.2%	·
CN(CCCNC(=O)C1CCCN(S(=O)(=O)c2cnc[nH]2)C1)c1ccccc1 (stereo unspecified)
→ i	4.0%	-0.5
Cn1cc(/C(Cc2ccccc2)=N\O)c2ccccc21
→ i	3.1%	-1.1
COCCNc1ncnc2nc[nH]c12
→ i	2.2%	1.53
Cc1ccc(CN2CCNC(=O)C2CC(=O)O)cc1 (stereo unspecified)
→ i	-1.9%	-0.82
NC(=O)C1(N2CCCCC2)CCN(CC(=O)Nc2ccccc2-c2ccccc2)CC1
→ i	-8.7%	-0.23
CC(C)OC(=O)c1cccc(C(=O)Oc2ccccc2)n1
→ i	5.6%	·
CCc1cc2c(=O)n(Cc3ccco3)c(SCc3c(C)noc3C)nc2s1
→ i	0.0%	0.43
COc1ccc(OCC(=O)Nc2cccc(OC)c2)cc1
→ i	-10.4%	-0.38
COc1cc(C2NC(=O)NC(C)=C2C(=O)OC2CCCC(C)C2)ccc1O (stereo unspecified)
→ i	1.8%	1.89
O=C(O)c1[nH]nc2c1COc1ccccc1-2
→ i	8.0%	0.68
CC(=O)C1=C(O)C(=O)N(CO)C1c1ccccc1F (stereo unspecified)
→ i	-2.5%	-1.58
CN(C)S(=O)(=O)N1CCN(CC(=O)Nc2cc(Cl)ccc2Cl)CC1
→ i	3.6%	0.89
CC(Nc1cccc2ccccc12)C(=O)N/N=C/c1ccccn1 (stereo unspecified)
→ i	-5.0%	·
Cn1ncc2c(Nc3ccccc3Br)ncnc21
→ i	-3.0%	-0.61
CN(c1ncc(C(F)(F)F)cc1Cl)n1cc(C(=O)O)c2ccccc2c1=O
→ i	0.8%	·
CCOC(=O)c1cnn(-c2nc(SC)nc3sc4c(c23)CCC4)c1N
→ i	-5.3%	0.11
O=C(CSCC(=O)NC1CC1)Nc1ccc2ccccc2c1
→ i	1.7%	·
CC(=O)Nc1ccc(S(=O)(=O)c2c(N)n(CCN3CCOCC3)c3nc4ccccc4nc23)cc1
→ i	9.0%	0.58
O=C(NC(=S)Nc1ccccc1N1CCCCC1)c1ccc(-c2cccc([N+](=O)[O-])c2)o1
→ i	0.5%	·
CCOC(=O)c1cc2sccc2n1CC(=O)OC(C)C
→ i	6.9%	-0.06
Cc1cc(C)nc(NC(=O)Nc2ccccc2C(F)(F)F)n1
→ i	0.2%	-0.24
O=C(NCCCn1ccnc1)c1ccncc1
→ i	-4.1%	0.19
COCCn1c(CN(C)Cc2ccccc2)nc2c1c(=O)n(C)c(=O)n2C
→ i	2.1%	-0.31
CCCCCC(=O)NC(=S)NNC(=O)CC
→ i	4.2%	·
CCC1(CC)NC(=O)N(CC(=O)Nc2sc3c(c2C(N)=O)CCC3)C1=O
→ i	-15.4%	-1.78
CCN1CCN(c2ncc(C(=O)Nc3c(F)cc(F)cc3Br)c3ccccc23)CC1
→ i	-4.0%	1.36
CCN(CCCNC(=O)COc1cc(=O)n(C)c2ccccc12)c1ccccc1
→ i	-4.2%	0.57
COc1cccc(Oc2c(C)oc3c(CN4CCOCC4)c(O)ccc3c2=O)c1
→ i	-2.1%	1.64
Cc1cccc(NC(=O)COC(=O)CNC(=O)C2CCCCC2)c1
→ i	2.5%	·

Record cards, from the list above. Order of values: MT1-MMP reporter, Hsc70 ATP site, WNV protease inh
Entry for Cc1cccc(NC(=O)COC(=O)CNC(=O)C2CCCCC2)c1 : i, 2.5%, ·
Entry for COCCn1c(CN(C)Cc2ccccc2)nc2c1c(=O)n(C)c(=O)n2C : i, 2.1%, -0.31

Other entries.
Sequence of screens: MT1-MMP reporter	Hsc70 ATP site	WNV protease inh
CN(Cc1ccccc1)c1nc(N)c([N+](=O)[O-])c(Nc2cccc(F)c2)n1
→ i	1.7%	·
Cc1sc2nc(CN(Cc3ccccc3)C(=O)NC3CCCCC3)[nH]c(=O)c2c1C
→ i	-5.7%	·
CCOC(=O)c1ccccc1OCc1cc(/C=N/n2cnnc2)ccc1OC
→ i	2.4%	·
CCCn1c(C(O)c2ccc(OC)cc2)nc2ccccc21 (stereo unspecified)
→ i	-7.3%	·
COc1ccc(S(=O)(=O)c2c(N)n(Cc3ccco3)c3nc4ccccc4nc23)cc1
→ i	8.4%	0.13
COc1ccc(-c2nnc(SCC(=O)Nc3sc4c(c3C#N)CCCC4)n2-c2ccccc2)cc1
→ i	2.2%	·
O=C(Cc1c(F)c(F)c(F)c(F)c1F)OC12CC3CC(C1)C(=O)C(C3)C2
→ i	-1.4%	-0.3
CC(C(=O)NCc1ccccn1)N1C(=O)c2ccccc2C1=O (stereo unspecified)
→ i	6.7%	-0.41
CCN(c1ccccc1)S(=O)(=O)c1ccc(C(=O)Nc2nnc(COC)o2)cc1
→ i	0.5%	0.42
CCOC(=O)/C(C#N)=C/C1=C(N2CCCC2)CC(C)(C)OC1
→ i	-1.1%	·
CCOC(=O)c1nnn(-c2nonc2N)c1CSc1ccccc1
→ i	1.6%	·
Cc1ccc(NC(=O)Cn2c(C)cc(C)c(C#N)c2=O)c(Cl)c1
→ i	-5.5%	0.64
O=C(O)CC(NC(=O)COc1ccc(Cl)cc1Cl)C(=O)O (stereo unspecified)
→ i	0.2%	-1.01
CCn1cnc2c1c(=O)n(Cc1nnc3n1-c1ccccc1SC3)c(=O)n2Cc1ccccc1
→ i	0.9%	-1.32
CN1C(=O)NC(c2ccccc2)C2=C1CN(CCc1ccccc1)C2=O (stereo unspecified)
→ i	3.2%	·
CCOC(=O)N1CCN(S(=O)(=O)c2ccc(C)c(C)c2C)CC1
→ i	4.0%	-1.17
CCNc1nnc(-c2ccccc2OC)s1
→ i	-1.9%	-0.72
C=CCSc1nc2c(c(=O)[nH]c(=O)n2C)n1C/C=C(/C)Cl
→ i	-0.3%	-1.09
CCOC(=O)n1c(=O)oc2cc(S(=O)(=O)N3CCOCC3)ccc21
→ i	-6.3%	0.01
Cc1cccc(-n2c(N)cc(=O)nc2SCC(=O)Nc2nnc(CC(C)C)s2)c1
→ i	-0.3%	·
O=C1C2C(C(=O)N1c1ccc3c(c1)OCO3)C1C=CC2C12CC2 (stereo unspecified)
→ i	6.2%	-0.88
CS(=O)(=O)N(CC(=O)N1CCc2ccccc2C1)c1ccc2c(c1)OCO2
→ i	-2.2%	0.12
CC(=O)Nc1nc(-c2ccc(Br)s2)cs1
→ i	-2.6%	2.09
CCOC(=O)N1CCC(NC(=O)C2CCCN(C(=O)N3CCOc4ccccc43)C2)CC1 (stereo unspecified)
→ i	0.0%	0.52
CCCS(=O)(=O)N1CCC(C(=O)NCCN(C)Cc2ccccc2)CC1
→ i	-7.6%	0.24
Cc1cc(NC(=O)CSc2nnnn2C2CCCC2)no1
→ i	-3.7%	1.3
CCC(NS(=O)(=O)c1c(C)[nH]c(=O)[nH]c1=O)C12CC3CC(CC(C3)C1)C2 (stereo unspecified)
→ i	-2.3%	0.07
CS(=O)(=O)N(CC(=O)Nc1ccc(Cl)c(Cl)c1)C1CCCCC1
→ i	7.2%	·
Cn1nnc2c(sc3nc(N4CCOCC4)c4c(c32)CCCC4)c1=O
→ i	0.5%	-0.84
COC(=O)c1[nH]c2ccc(C)cc2c1NS(=O)(=O)c1ccc(F)c(C)c1
→ i	-0.3%	-0.35
COC(=O)c1ccsc1NC(=O)c1ccc2c(c1)OCCO2
→ i	-2.3%	-1.04
COc1ccc(N2C3=C(CC4=C2CCCC4=O)C(=O)CCC3)cc1
→ i	12.0%	·
O=c1cc(CN2CCOCC2)c2c(ccc3ccccc32)o1
→ i	-2.0%	-1.87
Cc1ccc2c(c1)NC(C(C)(C)C)CO2 (stereo unspecified)
→ i	-2.7%	·
CC1Cc2ccccc2N1C(=O)C1CCN(S(=O)(=O)c2cccs2)CC1 (stereo unspecified)
→ i	0.6%	0.22
CCn1nc(C)c(NC(=O)CCCSc2nc(-c3ccco3)cc(C(F)(F)F)n2)c1C
→ i	2.1%	0.11
CCOc1ccc(OCCN2C(=O)NC(Cc3c[nH]c4ccccc34)C2=O)cc1 (stereo unspecified)
→ i	4.3%	·
O=C1C(Cl)=C(NCC2CCCO2)C(=O)N1C1CCCCC1 (stereo unspecified)
→ i	-6.1%	-0.01
Cn1nnnc1Sc1nc(-c2cccnc2)nc2ccccc12
→ i	4.7%	0.8
COc1ccc2c(C)cc(SCC#N)nc2c1
→ i	-33.1%	-1.09
CCOc1ccc(-n2c(=O)[nH]cc(C(=O)N3CCc4ccccc43)c2=O)cc1
→ i	-3.8%	-0.82
COc1ccc(CN(Cc2cc3cc4c(cc3[nH]c2=O)OCO4)C(=O)NC2CCCCC2)cc1
→ i	-1.5%	0.54
O=C(c1cc(-c2ccccc2Cl)on1)N1CCN(C(=O)c2ccco2)CC1
→ i	2.7%	·
CCOC(=O)N1CCC(NC(=O)Cn2cc3c(n2)CCCC3)CC1
→ i	2.0%	1.3
Nc1ccccc1C(=O)N(Cc1ccccc1)Cc1ccccc1
→ i	-1.8%	·
Cc1ccsc1C(=O)OCC(=O)NCc1ccc2c(c1)OCO2
→ i	5.3%	0.28
Cn1c(NCc2cc(Br)ccc2O)nc2ccccc21
→ i	0.8%	2.52
Cc1c(C(=O)NCC2CCCO2)oc2ccc(S(=O)(=O)N3CCCC3)cc12 (stereo unspecified)
→ i	-4.1%	0.24
Cc1cc(C)c(C)c(OCCCn2ccnc2)c1
→ i	1.1%	·
